# Screening data (PubChem BioAssay)
# Mtb bLac sens = beta-lactam sensitization of Mtb H37Rv; M. tuberculosis H37Rv growth with meropenem, percent inhibition; hits of this screen are not shown here; inhibition, % at 25 µM; 330,000 compounds, 0.27% hits;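 active = about 74% or more and at least 40 points above the plate without the antibiotic, then above 30% in a dose series; inconclusive = first-round hits that could not be retested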;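 also: growth measured after seven days incubation then overnight dye step; 0% = bacteria only wells and 100% = bacteria with antibiotic; twin plates without the antibiotic show which effects depend on it; some results filed as inactive read as strong as hits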
# Arbovirus anti = antivirals against arbovirus infection. 200,000 compounds, 0.37% hits. AID 1251. inhibition, % at 10 µM. arbovirus infection cell-based antiviral screen;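 active = inhibition from about 30%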;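 also: bluetongue infection of BSR cells; cell survival read as ATP light after 72 h; 0% = infected wells without compound and 100% = uninfected wells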
# YopH PTP inh = YopH (Yersinia) phosphatase inhibition; inhibition, %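 (about 10 µM by stock and volumes)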; 140,000 compounds, 0.16% hits; fluorescence Ex485/Em525;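 active = inhibition of 50% or more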;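 also: controls were vehicle for no effect and minimum signal wells for full effect; inactives centre near -20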
# Mtb growth = M. tuberculosis H37Rv growth inhibitors, H37Rv strain (AID 1626); M. tuberculosis H37Rv growth inhibition; higher % means a stronger effect; inhibition, % at 10 µM; hits with a dose series show IC50 in µM; 220,000 compounds, 0.95% hits;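 active = confirmed in a dose series; inconclusive = inhibition above 80% but not taken into the dose series; inactive = below 80% or under 30% at every dose of the series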;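 also: bacteria incubated seven days before Alamar blue readout; 0% = bacteria only wells and 100% = bacteria with antibiotic wells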
# RecA splice inh = inhibitors of M. tuberculosis RecA intein splicing | P9WHJ3 | cell-free RecA intein splicing, fluorescence | inhibition, %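 (about 9 µM by stock and volumes)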 | 290,000 compounds, 0.75% hits | AID 2221; in the data active = inhibition above about 30%; inconclusive = no clear call, values can overlap the other calls;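 also: 0% = vehicle wells and 100% = reference inhibitor control wells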
# Target sequence (P9WHJ3 whole entry, looked up, canonical isoform): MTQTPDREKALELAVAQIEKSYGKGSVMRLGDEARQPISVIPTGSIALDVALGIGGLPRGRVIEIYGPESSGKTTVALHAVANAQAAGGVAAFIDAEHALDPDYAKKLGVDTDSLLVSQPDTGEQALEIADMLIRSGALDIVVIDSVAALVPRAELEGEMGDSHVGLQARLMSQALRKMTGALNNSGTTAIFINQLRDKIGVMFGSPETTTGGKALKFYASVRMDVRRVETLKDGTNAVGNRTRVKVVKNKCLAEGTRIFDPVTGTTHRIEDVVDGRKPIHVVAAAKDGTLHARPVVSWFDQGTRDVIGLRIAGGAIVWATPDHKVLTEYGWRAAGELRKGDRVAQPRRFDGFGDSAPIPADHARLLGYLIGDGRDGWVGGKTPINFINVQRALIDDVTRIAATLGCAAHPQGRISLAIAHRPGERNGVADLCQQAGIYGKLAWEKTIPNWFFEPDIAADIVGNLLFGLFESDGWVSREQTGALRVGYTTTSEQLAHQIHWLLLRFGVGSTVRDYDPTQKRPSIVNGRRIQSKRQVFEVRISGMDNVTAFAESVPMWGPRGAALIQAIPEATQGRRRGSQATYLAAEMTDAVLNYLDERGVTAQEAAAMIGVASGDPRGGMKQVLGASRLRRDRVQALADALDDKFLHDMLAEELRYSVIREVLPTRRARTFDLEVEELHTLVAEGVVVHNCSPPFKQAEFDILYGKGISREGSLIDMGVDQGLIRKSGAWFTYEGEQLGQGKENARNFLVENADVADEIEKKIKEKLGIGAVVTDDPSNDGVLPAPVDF
# Arbovirus anti repeat = recorded beside Arbovirus anti, whose call it bears; inhibition, %; measured here: 10K subset replicate screen; many hits read low in the repeat;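 first of two repeat runs on a subset; 0% = infected and 100% = uninfected wells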
# * hit, by the source's call; ? = inconclusive; . = no result given. Some of the compounds tested (hit frequency here may not be typical).
SMILES,Mtb bLac sens,Arbovirus anti,YopH PTP inh,Mtb growth,RecA splice inh,others
CC(O)CNc1nc2c(c(=O)n(C)c(=O)n2C)n1Cc1cccc(C(F)(F)F)c1 (stereo not given),-5.1,8.5,-1.4,2.5%,-2.0,
CCOC(=O)N1CCN(C(=O)Cc2ccccc2OC)CC1,5.0,.,.,.,-0.5,
COc1ccc(C(NC(=O)N2CC(C)OC(C)C2)C(Cl)(Cl)Cl)cc1F (stereo not given),-2.4,-0.7,-34.7,0.1%,-5.1,
O=S(=O)(c1ccccc1)c1nc(Nc2ccccc2N2CCOCC2)sc1Cl,4.8,13.8,-61.5,7.3%,11.1,
CC1CC(=O)Nc2ccccc2N1S(=O)(=O)c1ccccc1 (stereo not given),-0.4,1.6,-27.3,-14.4%,-3.3,
Cc1ccccc1-n1nc2c(c1NC(=O)c1ccc(S(=O)(=O)N(C)C)cc1)CSC2,-0.7,0.3,-24.0,-3.1%,0.0,
O=S(=O)(NC1CCCC1)c1ccc(S(=O)(=O)N2CCN(c3ccccc3)CC2)cc1,7.0,-0.5,-27.8,-9.1%,1.9,
CC(=O)Nc1cccc(/C(C)=N/NC(=O)c2ccc(CN3CCOCC3)cc2)c1,1.5,-4.0,.,-2.5%,-2.2,
COc1ccc(CN2CCC(=O)N([C@H](CO)c3ccccc3)CC2)cc1,-7.1,.,.,.,-4.0,
Cc1c(C(=O)OCC(=O)Nc2ccc(C(=O)N(C)C)cc2)oc2ccccc12,-5.8,.,.,.,-2.0,
COCCCNC(=O)C1CCCN(S(=O)(=O)c2cccc3nsnc23)C1 (stereo not given),-10.5,.,.,.,5.0,
O=C(CC1NC(=O)NC1=O)NC1(C(=O)NC2CCCCC2)CCCCC1 (stereo not given),3.4,-2.9,-41.4,4.7%,-1.1,Arbovirus anti repeat=3.0
COc1ccccc1C(=O)COC(=O)CCNS(=O)(=O)c1ccc(C)c(C)c1,3.5,.,.,.,0.6,
Fc1ccccc1-c1csc(=Nc2cccnc2)n1CCCn1ccnc1,53.8,11.5,-16.5,2.0%,2.6,
CC(N=Cc1ccccc1O)c1ccccc1 (stereo not given),-2.5,0.1,3.8,-4.1%,1.2,
Fc1ccc(NC(=S)N2CCCC2)cc1,-2.5,.,4.5,-8.4%,-0.1,
C=CCN(Cc1nc(-c2ccc(OC)cc2)no1)C(=O)c1ccc2c(c1)OCO2,-3.7,.,.,.,5.4,
Cc1ccc(-n2c(=O)c3sccc3n(Cc3cc(=O)n4cc(Cl)ccc4n3)c2=O)cc1F,-4.5,8.4,-25.8,4.7%,-1.9,
Cc1ccc(S(=O)(=O)NNC(=O)C2CC=CCC2C(=O)O)cc1 (stereo not given),-10.5,-1.2,.,1.4%,1.0,
COC(=O)C1=C(C)N(Cc2ccccc2)C(=O)N[C@H]1CCc1ccccc1,-7.3,.,.,-1.6%,0.4,
O=C(NCC(=O)N(CCc1ccccc1)C(C(=O)NC1CCCCC1)c1ccncc1)c1ccco1 (stereo not given),-7.8,7.7,-26.1,-7.0%,2.9,
Cc1ccc(NS(=O)(=O)c2ccc(CCC(=O)NCCCOC(C)C)cc2)cc1,-2.8,4.1,-22.3,-6.3%,-0.4,
C=CCn1c(C(C)NC(=O)c2ccccc2C)n[nH]c1=S (stereo not given),-1.6,-0.7,-25.7,3.4%,-4.2,
O=C1N(Cc2cccnc2)C[C@@H]2C[C@@H](c3ccc4nsnc4c3)N3CCC[C@@]123,-4.4,9.1,.,3.6%,5.7,
Cc1ccc2[nH]c(=O)c(CN(CCCN3CCOCC3)Cc3nnnn3C3CCCC3)cc2c1,-4.9,5.2,-16.7,-2.9%,-4.5,
COc1ccc(CN2CCN(Cc3cccc(OC)c3)C(CCO)C2)cc1 (stereo not given),-7.6,3.0,.,-1.0%,-0.1,
COCCCNC(=S)N1CCCC(c2nc3cc(C)c(C)cc3[nH]2)C1 (stereo not given),6.5,-3.4,.,14.9%,-0.7,
CC(=O)N1CCN(S(=O)(=O)c2cccc(C(=O)OCC(=O)N3CC(=O)Nc4ccccc43)c2)CC1,3.1,-1.5,.,5.5%,0.0,
CC(C)c1ccc(CCNC(=O)c2ccc([N+](=O)[O-])cc2)cc1,13.6,-2.0,-25.1,1.1%,3.3,
O=C(Cn1nc(C(=O)O)c2ccccc2c1=O)NCC1CCCO1 (stereo not given),-1.3,-0.9,-25.4,0.4%,1.4,Arbovirus anti repeat=3.6
Cc1cccc(/C=N/Nc2cc(N3CCOCC3)nc(N3CCOCC3)n2)c1,31.9,-22.9,-7.5,61.6%,-1.0,
Cc1ccc(OCC(=O)N/N=C\c2ccc(C)o2)c([N+](=O)[O-])c1,.,8.6,.,-4.7%,-3.4,
CC(=O)c1ccc(OCCCCOc2ccc(C(C)=O)cc2)cc1,-0.4,.,.,.,-0.7,
Clc1ccc(/C=N/c2c(-c3ccco3)nc3ccccn23)cc1,4.0,2.8,10.2,-10.2%,-64.5,
COc1ccc(CN2C(=O)CS(=O)CC2=O)cc1OC,-3.4,9.4,-33.7,-1.3%,3.1,
COc1ccc(C2=NS(=O)(=O)N(C)C(C(=O)NC(C)c3ccccc3)=C2)cc1 (stereo not given),-6.0,.,.,.,0.3,
CNC(=S)N(Cc1cccs1)Cc1cc2cc(OC)c(OC)cc2[nH]c1=O,5.6,-3.2,-4.0,-0.2%,0.1,
CCNC(=S)NNC(=O)c1csc2ccccc12,-5.6,2.1,-84.2,-0.2%,-0.5,
Cc1cccc(C(=O)Nc2ccc(C(=O)/C=C/c3cccs3)cc2)c1,22.2,-5.3,-35.7,6.5%,1.1,
Cc1cc2c(c(=O)n1CC1CCCO1)C(c1ccc3c(c1)OCO3)C(C#N)=C(N)O2 (stereo not given),-6.4,-8.6,-47.7,-9.3%,-0.2,
Cc1noc(/C=C/c2ccco2)c1S(=O)(=O)N1CCC(C(=O)N(C)Cc2ccccc2)CC1,-6.0,5.6,-36.6,-4.4%,2.9,
CN(c1ccccc1C(=O)Nc1ccc(CC#N)cc1)S(=O)(=O)c1ccccc1,-3.7,.,.,.,-0.1,
Clc1ccc(OCCCn2cncn2)cc1Cl,-2.9,11.3,2.6,.,-0.4,
Cn1cccc1/C=C1\SC(=S)N(NC(=O)c2ccccc2Cl)C1=O,-4.9,-10.4,-22.5,2.6%,.,
CC1CCN(S(=O)(=O)c2ccc(C(=O)NCc3ccc4c(c3)OCO4)cc2)CC1,-7.6,-11.2,-2.2,-5.1%,-0.6,
COCCNc1nc2ccccc2n2cnnc12,-6.5,.,.,.,-1.5,
O=[N+]([O-])c1cccc(-c2ccc(SCc3cccnc3)nn2)c1,8.9,-1.5,.,7.2%,0.6,
COc1ccc(-n2nc3c(c2NC(=O)c2c(-c4ccccc4Cl)noc2C)CS(=O)(=O)C3)cc1,.,2.6,-7.9,.,1.0,
Cc1c(C=O)c2ccccn2c1C(=O)c1ccccc1Cl,6.9,.,.,.,-0.4,
Cc1nc(-c2ccc(-c3ccon3)s2)no1,-3.9,.,.,-7.6%,.,
CC1=C(C(N)=O)C(c2cccs2)NC(=O)N1 (stereo not given),1.2,.,.,-7.3%,-3.7,
O=C(C/C=N\OCc1ccc([N+](=O)[O-])cc1)Nc1ccc(Cl)cc1,72.4,-9.4,.,?,0.4,
CCSc1nc(C)c(C(C)=O)cc1C#N,-3.9,9.6,-25.2,0.9%,0.8,
C=CCOC(=O)C1=C(C)NC(SCC(N)=O)=C(C#N)C1c1ccc(C)cc1 (stereo not given),18.9,.,.,5.0%,1.6,
CC(=O)N1CCN(C(=O)c2cc(S(=O)(=O)Nc3ccc(S(C)(=O)=O)cc3)ccc2Cl)CC1,-2.3,3.9,.,-8.8%,1.1,
O=C(Oc1cccc(NC(=O)c2ccco2)c1)c1ccc(Br)c(S(=O)(=O)N2CCCCC2)c1,-1.1,8.4,-12.2,-10.7%,.,
Cc1onc(-c2ccccc2Cl)c1C(=O)N1CCN(c2ncccn2)CC1,2.4,6.1,.,-8.1%,.,
COc1ccc(/C(N)=N/OC(=O)c2ccc(C)c([N+](=O)[O-])c2)cc1OC,7.2,6.0,-21.4,-7.0%,-7.4,
Cc1ccc(-c2csc(C3C(N)=NC(S)=C(C#N)C34CCCCC4)n2)cc1 (stereo not given),1.7,9.5,10.8,-0.4%,17.6,
Cc1c(C(=O)O)nnn1-c1nonc1N,-9.8,-1.6,.,2.5%,-2.3,
# The list goes on.
SMILES,Mtb bLac sens,Arbovirus anti,YopH PTP inh,Mtb growth,RecA splice inh,others
CN(C1CCS(=O)(=O)C1)S(=O)(=O)c1cccs1 (stereo not given),-13.0,.,.,.,-2.7,
COc1ccc(NS(=O)(=O)c2ccc(C)c(C(=O)OC(C)C(=O)N3CCOCC3)c2)cc1 (stereo not given),0.9,.,.,.,1.4,
Cn1c2ccccc2c2cnn(CC(=O)Nc3ccc(Cl)cc3)c(=O)c21,-3.4,.,.,-2.2%,-1.5,
COc1nn(C(C)C(=O)N2N=C(C(F)F)CC2(O)C(F)F)cc1[N+](=O)[O-] (stereo not given),-7.5,5.8,-19.4,-4.6%,-0.1,
CCCCOC(=O)Nc1nnc(CCOCC)s1,-5.7,-3.4,23.2,-2.4%,-1.5,
NS(=O)(=O)c1ccc(CCNC(=O)COC(=O)CN2C(=O)C3CCCCC3C2=O)cc1 (stereo not given),-8.9,-4.9,.,-24.8%,-0.7,
COc1ccc(-c2noc(CNC(=O)CCN3C(=O)[C@H]4CC=CC[C@H]4C3=O)n2)cc1,-2.3,.,.,.,-2.0,
O=C(c1cccnc1)N1CCN(Cc2cccc(Br)c2)CC1,3.5,4.5,-3.3,3.0%,-0.1,
Cc1ccccc1C(=O)N/N=C/c1ccsc1C,-5.0,1.6,-28.4,-0.5%,0.4,
CCCCCCCCCc1nc2sc3c(c2c(=O)n1NC(=O)c1ccccc1[N+](=O)[O-])CC(C)(C)OC3,15.4,-31.8,-8.7,7.0%,2.4,
CC(C)(C)NC(=O)Cn1c(Cl)nc2ccccc21,-0.5,12.4,.,-2.8%,-1.8,
COc1ccc(S(=O)(=O)N2CCCC2CNC(=O)C(=O)NC2CC2)cc1 (stereo not given),1.9,.,.,.,0.1,
CC(=O)Nc1cc2c(ccc3ccccc32)oc1=O,-7.8,-6.3,.,-1.3%,-3.5,
Cc1ccc2oc(=O)c3cnn(CC(=O)NCCN4CCOCC4)c3c2c1,3.2,0.0,-29.6,1.0%,3.1,Arbovirus anti repeat=3.6
CC1CC(C)CN(S(=O)(=O)c2ccc3oc(=O)ccc3c2)C1 (stereo not given),-18.5,.,.,.,0.4,

# Retrieved one by one from above, 3 records:
SMILES,Mtb bLac sens,Arbovirus anti,YopH PTP inh,Mtb growth,RecA splice inh,others
CC(=O)Nc1cc2c(ccc3ccccc32)oc1=O,-7.8,-6.3,.,-1.3%,-3.5,
CC1CC(C)CN(S(=O)(=O)c2ccc3oc(=O)ccc3c2)C1 (stereo not given),-18.5,.,.,.,0.4,
CN(C1CCS(=O)(=O)C1)S(=O)(=O)c1cccs1 (stereo not given),-13.0,.,.,.,-2.7,

# (cont.)
SMILES,Mtb bLac sens,Arbovirus anti,YopH PTP inh,Mtb growth,RecA splice inh,others
COc1ccc(-n2nnnc2SCC(=O)NNC(=O)c2ccc([N+](=O)[O-])cc2)cc1,28.2,-4.5,-47.4,1.8%,-4.2,
CCN(CC(=O)Nc1ccccc1C(F)(F)F)C(=O)CCOc1ccc(C)cc1,-5.3,.,.,.,0.8,
COc1nc(N2CCCCCC2)nc(N2CCCCCC2)n1,4.3,-14.5,-47.5,-8.5%,7.0,
CN(C)c1ccc(P(=O)(OCc2ccccc2)C(O)c2ccc(Cl)cc2)cc1 (stereo not given),-7.5,.,.,-7.6%,2.0,
COc1ccc(C2c3ccc(O)cc3Oc3ncn(CC(C)C)c(=N)c32)cc1 (stereo not given),7.8,.,.,8.8%,-0.4,
O=[N+]([O-])c1cccc(Oc2cnccn2)c1,-1.3,.,.,.,0.4,
COC(=O)c1ccc(NC(=O)c2nc(S(=O)(=O)Cc3cccc(C)c3)ncc2Cl)cc1,3.3,.,.,.,73.2*,
CC(C)c1ccc(/C=N/NC(=O)CC(=O)NC2CCCCC2)cc1,-4.7,-3.6,.,-4.2%,-5.7,
Cc1cccc(NC(=O)NC(C)C(c2ccccc2)N2CCN(C)CC2)c1 (stereo not given),7.9,13.0,.,8.1%,2.2,
CCn1c(N2CCN(C(=S)NC)CC2)nc2ccccc21,-0.3,8.9,2.9,8.4%,4.4,
CCOC(=O)c1ccc(NC(=O)Nc2ccc(S(N)(=O)=O)cc2)cc1,-4.5,7.3,-12.1,-7.1%,1.7,
Cc1cc([N+](=O)[O-])c2ccccc2[n+]1[O-],99.6,.,.,?,-14.6,
COc1cccc(NC(=S)N2CCc3cc(OC)c(OC)cc3C2COc2ccc3c(C)cc(=O)oc3c2)c1 (stereo not given),3.3,-7.9,-4.9,-4.0%,0.6,
